Source: PubChem (National Center for Advancing Translational Sciences (NCATS))
SARS PLpro yeast = SARS-CoV PLP inhibition in yeast; S. cerevisiae expressing SARS-CoV PLpro, growth rescue; control for the full effect not named in the record; Potency, µM (titrated, usually from 32.9 µM), without a hit: at the highest dose activity, positive = growth rescue; actives 0.19% (n = 330,000); active means well fitted rising curve with a large enough effect; inconclusive means small, poorly fitted or top-dose-only effect; inactive means no such curve, though single readings can be large or run the other way; further: 0% is about no effect; nearly all actives have a fitted effect of over 55% in size; growth read by luminescence after 48 h
RE007 growth inh = less growth of the S. pombe RE007 Vpr strain | Potency, µM (highest dose often 92.2 µM), for inactives: top-dose activity change, negative = less growth | S. pombe RE007 Vpr strain, BacTiter-Glo ATP luminescence, 24 h; control for the full effect not named in the record | actives 0.21% (n = 360,000); active = well fitted falling curve with a large enough effect; inconclusive = small, poorly fitted or top-dose-only effect; inactive = no such curve, though single readings can be large or run the other way;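 further: on the % scale 0 is the no-effect control and ±100 the full control effect; nearly all actives have a fitted effect of over 50% in size; the assay follows cell death caused by Vpr and the record does not say whether a fall means rescue or toxicity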
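Fission yeast strain RE007, carrying one chromosomally integrated HIV-1 vpr copy, was seeded at OD 0.01 in PMG+AL medium with 23 nL pinned compound. After 24 h at 30 °C and 99% humidity, viability was read by BacTiter-Glo luminescence.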
NS1 function inh = influenza NS1 inhibition | Potency, µM (series often up to 46.1 µM), for inactives: top-dose activity, positive = more growth | AID 2326 | actives 0.4% (n = 270,000) | S. cerevisiae slowed by influenza A NS1, growth recovery by OD600; active means well fitted rising curve with a large enough effect; inconclusive means small, poorly fitted or top-dose-only effect; inactive means no such curve, though single readings can be large or run the other way; further: nearly all actives have a fitted effect of over 50% in size
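In this qHTS, NS1 from influenza A is expressed in budding yeast, where it slows growth. Cells are switched from glucose to 2% galactose medium (pH 6.0, -URA), treated with compound, and growth recovery is read at OD600.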
Marburg entry inh = blocks Marburg virus binding to or entry into cells; actives 1.8% (n = 300,000); AID 540276; Potency, µM (doses to about 37.8 µM), without a hit: top-dose activity change, negative = inhibition, most hits filed as inhibitors; Marburg virus pseudotyped entry inhibition, cell reporter; control for the full effect not named in the record; about a third of the inactives were read at about 46 µM; active = well fitted inhibition curve with a large enough effect; inconclusive = small, poorly fitted or top-dose-only effect, or effect the other way; inactive = flat fitted curve, though single readings scatter; tested in HEK293 cells; about a fifth of its hits are not listed in these tables; further: on the % scale 0 is the no-effect control and ±100 the full control effect; luciferase read-out
StopGo reporter = lowers the luciferase signal of an FMDV 2A StopGo reporter | human cells with a luciferase reporter of 2A StopGo recoding; control for the full effect not named in the record | actives 1.2% (n = 410,000) | Potency, µM (series often up to 57.9 µM), without a hit: at the top dose signal change, negative = less light; active = well fitted falling curve with a large enough effect; inconclusive = small, poorly fitted or top-dose-only effect; inactive = no such curve, though single readings can be large or run the other way; tested in HEK293T cells; further: on the % scale 0 is the no-effect control and ±100 the full control effect; nearly all actives have a fitted effect of over 45% in size; luciferase light after 4 h
Cruzain Triton = inhibitors of Trypanosoma cruzi cruzain with detergent; P25779; purified cruzain, Z-FR-AMC fluorescence, 0.01% Triton; Potency, µM, for inactives: max response, negative = inhibition, actives largely listed as inhibitors; actives 0.43% (n = 200,000); AID 1478;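 further: plate controls were neutral wells for no effect and buffer without enzyme for full effect; nearly all actives have a fitted effect of over 40% in size; top concentration of the series not given in the record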
Target sequence (P25779 123-467 limits assumed): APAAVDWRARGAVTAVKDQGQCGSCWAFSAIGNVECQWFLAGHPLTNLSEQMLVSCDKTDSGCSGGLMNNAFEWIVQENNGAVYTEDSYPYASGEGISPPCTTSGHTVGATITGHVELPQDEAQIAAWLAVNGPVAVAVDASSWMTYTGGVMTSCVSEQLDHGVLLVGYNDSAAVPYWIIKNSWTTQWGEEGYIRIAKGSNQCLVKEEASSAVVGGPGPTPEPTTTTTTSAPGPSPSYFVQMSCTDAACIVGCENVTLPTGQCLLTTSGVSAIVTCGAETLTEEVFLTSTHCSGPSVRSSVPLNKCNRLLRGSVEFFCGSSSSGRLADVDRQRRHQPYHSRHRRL
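In this qHTS format, compounds are incubated with 1.5 nM cruzain for 15 min at room temperature before 2 uM Z-FR-AMC is added. Release of AMC is followed at 360/450 nm, and progress is taken as the 60 s fluorescence difference.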
Lassa entry inh = Lassa virus entry inhibition | Lassa virus pseudotype entry inhibition, cell reporter; control for the full effect not named in the record | Potency, µM (highest dose often 37.9 µM), for the others: at the highest dose activity change, negative = inhibition, hits mostly inhibitors | actives 1.2% (n = 300,000); active means well fitted inhibition curve with a large enough effect; inconclusive means small, poorly fitted or top-dose-only effect, or effect the other way; inactive means flat fitted curve, though single readings scatter; tested in HEK293 cells; further: on the % scale 0 is the no-effect control and ±100 the full control effect; nearly all actives have a fitted effect of over 50% in size; luciferase read-out
Cruzain inh noDet = blocks cruzain activity in detergent-free assay. purified cruzain, Z-FR-AMC fluorescence, no detergent. Potency, µM, inactives show max response, negative = inhibition, actives largely listed as inhibitors. actives 2.3% (n = 200,000);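 further: plate controls were enzyme without inhibitor for no effect and buffer without enzyme for full effect; nearly all actives have a fitted effect of over 40% in size; top concentration of the series not given in the record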
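Detergent-free condition (0.00005% Triton X-100) in acetate buffer pH 5.5 with DTT. 1.5 nM enzyme and compound were pre-mixed 15 min, then 2 uM Z-FR-AMC substrate added; reaction progress from fluorescence change between first and third reads (60 s).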
The depositor's hits bear a star; ? = inconclusive; / = not tested or not shown; [ ] = another dose, or the depositor's remark. Unless noted, the call rests on the fitted dose curve; in most records, active means well fitted curve in the direction sought with a large enough effect; inconclusive means small, poorly fitted or top-dose-only effect, or another doubt; inactive means no such curve, though single readings can be large; an effect the other way counts as inactive or inconclusive. Potency means the concentration at half of the fitted maximal effect.

SMILES	SARS PLpro yeast	RE007 growth inh	NS1 function inh	Marburg entry inh	StopGo reporter	Cruzain Triton	Lassa entry inh	Cruzain inh noDet
CCSC1=N/C(=C\c2ccccc2)C(=O)N1	4%	-12%	1%	0%	49%[activator]	-7.5%	9%	-22%
Cc1ccc(S(=O)(=O)N(C)CC(=O)N2CCCc3ccccc32)cc1	/	-3%	-1%	1%	31%[activator]	-1.0%	0%	-3%
CCN(CC)Cc1c(O)ccc2c([N+](=O)[O-])c(C)n(-c3ccc(OC)cc3)c12	11%	31%	8%	?	-21%	-12%	-4%	-21%
CCSc1nc2ccccc2c(OCc2cc(C(=O)OC)ccc2OC)c1C(=O)OC	/	/	/	?	-17%	-6.7%	-26%[46.1 µM]	-2%
COc1ccc(OC)c(S(=O)(=O)Nc2c(C)n(C)n(-c3ccccc3)c2=O)c1	6%	-6%	9%	-4%[46.1 µM]	-13%	/	-6%[46.1 µM]	/
Cc1ccc(-c2cnc(-c3ccccc3C(=O)O)o2)cc1	0%	-10%	-25%	8%[46.1 µM]	28%	/	?	/
Cc1cc(C)cc(N(C(=O)c2csnn2)C(C(=O)NC2CCCCC2)c2ccncc2)c1 (stereo not drawn)	-1%	-7%	-5%	?	6%	/	?	/
O=C(N/N=C/c1ccsc1)c1cc2ccccc2o1	-15%	-18%	-50%	/	17%	/	/	/
NC(=S)N=Nc1c(O)n(CCCl)c2ccccc12	0%	13%	-1%	-16%[46.1 µM]	-21%	/	13%	/
O=C(N/N=C/c1ccccc1Cl)C1CC1	-3%	2%	-6%	/	8%	/	/	/
COCCNC(=O)NC(=O)COC(=O)C1(c2ccc(Cl)cc2)CC1	24%	-14%	/	-2%[46.1 µM]	3%	/	6%[46.1 µM]	/
CN1CCN(C(=O)C2CCN(S(=O)(=O)c3ccc(F)cc3)CC2)CC1	-4%	6%	0%	17%[46.1 µM]	-2%	/	3%[46.1 µM]	/
Cc1cccc(CS(=O)(=O)c2nnc([C@H](Cc3ccccc3)NC(=O)OC(C)(C)C)o2)c1	-31%	-20%	-42%	16µM*	32µM*	16µM*	-10%	16µM*
O=C(O)CCc1nc2cc(C(F)(F)F)ccc2n(Cc2ccccc2)c1=O	-1%	20%	4%	12%[46.1 µM]	-20%	/	20%	/
Cc1nc(N2CCN(S(=O)(=O)c3ccc(F)cc3)CC2)c2c(-c3cccs3)csc2n1	0%	8%	/	?	?	/	?	/
COCCn1c(SCc2nc3scc(-c4ccc(Cl)cc4)c3c(=O)[nH]2)nnc1-c1cccc(C)c1	4%	28%	5%	?	40µM*	-6.0%	-25%	25µM*
COc1cccc(C(=O)Nc2ccccc2)c1	-18%	-17%	-145%	9%	44%[activator]	3.5%	3%	-7%
CCNc1nc(NCC)nc(NS(=O)(=O)c2ccc(N)cc2)n1	0%	-6%	11%	?	4%	/	-4%	/
C=CCn1cnc2c(sc3nc(C)cc(C)c32)c1=O	-8%	2%	-1%	/	58%[activator]	/	/	/
Cc1ccc(S(=O)(=O)N2CCN(C(=O)COC(=O)c3oc4ccccc4c3C)CC2)cc1	2%	-24%	/	-15%[46.1 µM]	-27%	/	-13%	/

A draw from above in order of count of non-hydrogen atoms, lowest first.
SMILES	SARS PLpro yeast	RE007 growth inh	NS1 function inh	Marburg entry inh	StopGo reporter	Cruzain Triton	Lassa entry inh	Cruzain inh noDet
C=CCn1cnc2c(sc3nc(C)cc(C)c32)c1=O	-8%	2%	-1%	/	58%[activator]	/	/	/
COCCNC(=O)NC(=O)COC(=O)C1(c2ccc(Cl)cc2)CC1	24%	-14%	/	-2%[46.1 µM]	3%	/	6%[46.1 µM]	/
CN1CCN(C(=O)C2CCN(S(=O)(=O)c3ccc(F)cc3)CC2)CC1	-4%	6%	0%	17%[46.1 µM]	-2%	/	3%[46.1 µM]	/
O=C(O)CCc1nc2cc(C(F)(F)F)ccc2n(Cc2ccccc2)c1=O	-1%	20%	4%	12%[46.1 µM]	-20%	/	20%	/
Cc1cccc(CS(=O)(=O)c2nnc([C@H](Cc3ccccc3)NC(=O)OC(C)(C)C)o2)c1	-31%	-20%	-42%	16µM*	32µM*	16µM*	-10%	16µM*

Next entries.
SMILES	SARS PLpro yeast	RE007 growth inh	NS1 function inh	Marburg entry inh	StopGo reporter	Cruzain Triton	Lassa entry inh	Cruzain inh noDet
CCN1CCCC1CN(Cc1cc2ccc(C)cc2[nH]c1=O)C(=S)Nc1ccccc1C(=O)OC (stereo not drawn)	-1%	-20%	-6%	?	-14%	/	?	/
CC(C)(C)c1ccc(S(=O)(=O)N2CCN(Cc3cc4c(cc3O)OCO4)CC2)cc1	-1%	9%	/	1%	-15%	/	0%	/
COc1cc2c(cc1OC)CN(C(=O)COc1ccccc1[N+](=O)[O-])CC2	8%	-5%	7%	-13%[46.1 µM]	6%	/	-5%[46.1 µM]	/
O=C(O)c1cccnc1SCC(=O)N1CCCc2ccccc21	-2%	6%	-2%	/	-18%	/	/	/
Cc1ccc(OCCCN2CCCC2)c(C)c1	7%	-10%	-6%	-11%	-26%	6.5%	8%	-3%
COC(=O)N1CCN(S(=O)(=O)c2ccc(F)cc2)CC1	6%	12%	4%	0%	-18%	-0.2%	1%	-9%
CCOC(=O)c1c(C(=O)OCC)c(C)n(CCc2ccccc2)c1C	16%	4%	-34%	-5%	-27%	-5.6%	?	5%
CC1CN(C2=NC(=O)/C(=C3/C(=O)N(Cc4ccc(F)cc4)c4ccccc43)S2)CC(C)O1 (stereo not drawn)	1%	-1%	3%	/	16%	/	/	/
CN(CC(=O)NCCc1ccccc1)S(=O)(=O)c1cccc2nsnc12	15%	-1%	8%	0%	-3%	-3.8%	1%	2%
CN1N=C(C(=O)Nc2ccc3c(c2)CCC3)CCC1=O	-1%	-6%	/	?	32%[activator]	/	-7%[46.1 µM]	/
O=C(CSc1nnc2scc(-c3ccc(Cl)cc3)n12)Nc1ccccc1F	/	/	/	4%[46.1 µM]	-26%	-5.4%	-6%[46.1 µM]	-14%
CCCn1ncc2c(Nc3ccc(C)c(C)c3)ncnc21	-12%	-8%	-22%	-21%[46.1 µM]	33%[activator]	/	-23%	/
c1ccc(-c2csc(Nc3cccnc3)n2)nc1	-5%	-11%	-37%	6%	45%[activator]	-1.6%	24%	-6%
COc1cccc(N=C2SC(CC(=O)Nc3ccccc3)C(=O)N2Cc2ccccn2)c1 (stereo not drawn)	-3%	12%	/	?	10%	/	4%	/
C=CCn1c(=O)c(C(=O)NCc2ccccc2Cl)c(O)c2ccccc21	-5%	0%	-7%	/	-7%	/	/	/
O=C1C(Cc2ccccc2)S/C(=N/N=C/c2ccco2)N1c1ccccc1 (stereo not drawn)	1%	3%	21%	-8%	-14%	1.2%	-19%	6%
COC(=O)CNc1c(-c2ccccc2)nc2ccc(Br)cn12	-19%	-26%	-55%	18%	16%	-1.8%	?	6%
CC1CCc2c(sc(NC(=O)c3c([N+](=O)[O-])cnn3C)c2C(N)=O)C1 (stereo not drawn)	-4%	-3%	4%	-8%[46.1 µM]	-4%	/	-3%[46.1 µM]	/
O=C(Nc1nc2nccc(-c3ccccc3)n2n1)c1ccccc1	1%	8%	5%	?	16%	/	11%[46.1 µM]	/
Cc1ccc(S(=O)(=O)NCCc2nnc3ccc(SCc4ccccc4C)nn23)cc1	/	/	/	/	-9%	-3.3%	-14%[46.1 µM]	-8%
S=P1(Oc2ccccc2)Nc2ccccc2N1	/	-24%	/	?	1%	/	?	/
COc1cc(/C=C2\C(=N)N3N=C(C(C)C)SC3=NC2=O)ccc1OCCOc1ccc(NC(C)=O)cc1	1%	9%	1%	-1%[46.1 µM]	-13%	/	16%[46.1 µM]	/
COc1ccc(C2=C/C(=C\c3ccc(OC(C)=O)cc3)C(=O)O2)cc1	4%	-29%	/	10%[46.1 µM]	-4%	/	-6%[46.1 µM]	/
CC(=O)c1nn(-c2cccc(Br)c2)cc1C(=O)c1ccc(Cl)cc1	4%	-2%	2%	?	-1%	-3.2%	?	?
COc1ccccc1NS(=O)(=O)c1cc(NC(=O)c2ccc(=O)[nH]c2)ccc1N1CCOCC1	-4%	16%	2%	?	104%[activator]	-4.2%	12%	13%
CCOC(=O)C(c1ccccc1)C(Nc1ccc(F)cc1)c1ccccn1 (stereo not drawn)	0%	5%	-5%	/	-21%	/	/	/
Cc1ccc(N(Cc2ccc(C(=O)NC3CCCCC3)cc2)S(C)(=O)=O)cc1C	3%	-4%	-6%	?	-3%	1.9%	-28%	-10%
Cc1ccc(S(=O)(=O)NC(=S)NC2CCCCC2)cc1	-2%	1%	/	9%[46.1 µM]	11%	/	12%	/
CCN(CC)S(=O)(=O)c1ccc(OC)c(NS(=O)(=O)c2ccc(F)cc2)c1	-4%	4%	-14%	-1%	-11%	-0.4%	-1%	1%
CN1C(=O)c2ccc(N3CCCC3)cc2C1=O	3%	-15%	-54%	14%	9%	-12%	1%	-4%
Cn1c(=O)c2cc(S(=O)(=O)NCCC(=O)NC3CCCCCCC3)ccc2n(C)c1=O	1%	2%	0%	-13%	-8%	1.3%	-31%[14.3 µM]	-4%
COc1ccc(Br)c(OC)c1C(=O)NC(=O)Nc1nc(C)cc(C)n1	0%	-8%	0%	-20%[46.1 µM]	-2%	/	-4%[46.1 µM]	/
CCN(C(=O)c1ccco1)c1nnc(-c2cccnc2)s1	-4%	-8%	-21%	?	0%	/	?	/
CCOc1ccc(NC(=O)CSc2nc3c(oc4ccccc43)c(=O)n2-c2cc(C)cc(C)c2)cc1	/	/	/	/	16%	0.0%	/	-11%
COc1ccc(CNC(=O)c2ccc(NC(=O)N3CCCCc4ccccc43)cc2)cc1	/	/	/	/	-20%	-0.2%	0%[46.1 µM]	-6%
CCC1(C)CC(CCNS(=O)(=O)c2ccc(C)cc2)(c2ccc(C)cc2)CCO1 (stereo not drawn)	-15%	-10%	2%	?	12%	-2.8%	?	27%
CCOc1ccc(C(=O)NCC(c2ccco2)S(=O)(=O)c2cccs2)cc1 (stereo not drawn)	/	/	/	/	9%	-2.1%	15%[46.1 µM]	10%
